CtBP-E1A inh: inhibitors of CtBP/E1A interaction; AlphaScreen GST-E1A/His-CtBP binding, 1536-well; hits give low values; control for the full effect not named in the record; AID 651724; actives 0.49% (n = 340,000); activity change, % (concentration not given with the values); in the data active means activity change below about -65%; inconclusive means about -30% to -65%; inactive means above about -30%; also: % is scaled to controls: 0 for no effect and ±100 for the full control effect
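In 5 uL wells, 23 nL compound meets equimolar GST-E1A and His-CtBP (5X stock 125 nM each) for 2 h, 37 °C. Beads (5X, 50 ug/mL) then 1 h, 37 °C, dark.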
D2 potentiator: potentiates the human D2 dopamine receptor allosterically; P14416; actives 0.23% (n = 360,000); potentiation, % (no concentration beside the values); DiscoveRx D2 beta-arrestin cells, luminescence, 90 min; 100% = 57 uM dopamine signal; active = potentiation of 50% or more; inconclusive = 30% to 50%; inactive = 30% or less;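 also: compound concentration not given in the record; tested on top of an EC20 dose of dopamine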
Target sequence (P14416 whole entry, looked up): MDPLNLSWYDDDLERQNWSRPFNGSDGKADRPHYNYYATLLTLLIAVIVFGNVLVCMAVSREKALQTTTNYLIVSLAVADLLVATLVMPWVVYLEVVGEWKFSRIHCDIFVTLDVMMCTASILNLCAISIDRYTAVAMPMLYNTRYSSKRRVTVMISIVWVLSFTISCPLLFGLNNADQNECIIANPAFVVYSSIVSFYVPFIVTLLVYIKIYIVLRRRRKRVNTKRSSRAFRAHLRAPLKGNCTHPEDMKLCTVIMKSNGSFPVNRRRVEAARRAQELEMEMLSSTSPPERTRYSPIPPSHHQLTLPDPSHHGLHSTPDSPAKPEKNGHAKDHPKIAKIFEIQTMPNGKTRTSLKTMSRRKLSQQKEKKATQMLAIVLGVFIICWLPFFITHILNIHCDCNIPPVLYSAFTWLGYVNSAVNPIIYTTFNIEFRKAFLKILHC
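D2 cells co-treated with compound plus 50 nM dopamine (EC20) for 90 min at 37 deg C to detect potentiation. Beta-arrestin recruitment was read as enzyme-fragment luminescence after 1 h at ambient temperature. Full response was set by 57 uM dopamine.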
D2 ag: activates the human D2 dopamine receptor; actives 0.084% (n = 360,000); P14416; activation, % (concentration not given with the values); DiscoveRx PathHunter D2 beta-arrestin, luminescence, 90 min; 100% = 57 uM dopamine signal; AID 624465; in the data active = activation above about 40%; inconclusive = about 15% to 40%; inactive = below about 15%; also: compound concentration not given in the record; the text of the record calls up to 30% inactive
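Agonist mode: compounds alone added to overnight-plated D2 PathHunter cells for 90 min at 37 C, with 57 uM final dopamine (EC100) defining full response. Beta-arrestin recruitment detected by chemiluminescent reagent, read after 1 h at ambient temperature.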
Six1-Eya2 blk: blocks human Six1 binding to Eya2. AID 651725. AlphaScreen GST-Six1/His-Eya2 binding, biochemical; hits give low values; control for the full effect not named in the record. activity change, % (no concentration beside the values). actives 0.56% (n = 360,000); in the data active = activity change below about -65%; inconclusive = about -30% to -65%; inactive = above about -30%; also: % is scaled to controls: 0 for no effect and ±100 for the full control effect; compound concentration not given in the record
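AlphaScreen luminescence read after one hour at 37 °C in darkness. Pin-transferred compounds met GST-Six1 and His-Eya2 protein (5X stock 250 nM/500 nM) plus glutathione donor and Ni-chelate acceptor beads (5X, 50 ug/mL).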
TRPML1 ag: agonists of human TRPML1 channel | activation, % (no concentration beside the values) | AID 624414 | actives 0.12% (n = 410,000) | TRPML1-expressing cells, Ca2+ dye fluorescence, FDSS; host cell line not named in the record; reference of the full effect not given here; in the data active = activation above about 50%; inconclusive = about 30% to 50%; inactive = below about 30%; also: 0% is about no effect; the text of the record puts the active cut at 80%
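Calcium fluorescence on an FDSS kinetic reader gave the read-out. Tet-induced TRPML1-DL cells were plated overnight, dye-loaded (Ca8 with quencher, 45-90 min, room temperature, dark), then read 110 s after compound addition, and again 110 s after 4uM final 54-4 (EC80).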
PINK1 expr mod: modulators of PINK1 expression; AID 624263; PINK1 immunofluorescence, high-content cytometry, 24 h; Potency, µM (highest dose often 76.6 µM), for the others: top-dose activation (PINK1 increase), actives largely listed as activators; actives 0.2% (n = 410,000); active = well fitted activation curve with a large enough effect; inconclusive = small, poorly fitted or top-dose-only effect; inactive = flat fitted curve, though single readings scatter; cell line not stated here;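 also: potency is read from the fitted curve at half-maximal effect; % of control where 0% means no effect; nearly all actives have a fitted effect of over 65% in size; a mitochondrial uncoupler was the plate control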
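Readout is PINK1 immunofluorescence, quantified alongside mitochondrial, cell and nuclear markers by laser-scanning microplate cytometry. Cells from a stable line were exposed to compound titrations (5 concentrations) for 24 hours, with CCCP controls.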
The depositor's hits bear a star; ? = inconclusive; . = no result given; [ ] = remark or other dose. Rows were taken by chance (roughly 1.3% active in at least one column).

No. | canonical_smiles | CtBP-E1A inh | D2 potentiator | D2 ag
1 | CCOc1cc(/C=N/NC(=O)CNc2ccc(C)cc2)ccc1OC(=O)c1ccccc1 | 10 | 14 | 0.7
2 | CCCc1nnc(NC(=O)CCC(=O)NCCc2ccc(OC)c(OC)c2)s1 | 0 | -8 | -2.8
3 | O=C(COc1ccc(Cl)cc1)NCc1nnc(SCC(=O)NC2CCCC2)o1 | 0 | -3 | -1.9
4 | Nc1c(Cl)cc(-c2csc(NCCc3nc4cc(Cl)c(Cl)cc4n3CCCO)n2)cc1Cl | . | -22 | -1.1
5 | COc1ccc(N2C(=O)CC(N3CCC(O)(c4ccc(Cl)cc4)CC3)C2=O)cc1 (stereo not given) | 9 | -13 | 0.1
6 | O=C(Nc1ccc(F)cc1)c1cccnn1 | . | -7 | -3.0
7 | S=c1[nH]c(-c2ccccc2)cn1/N=C/c1ccncc1 | -6 | 17 | -6.1
8 | O=C(COc1ccccc1F)NCC(c1ccc(F)cc1)N1CCOCC1 (stereo not given) | 12 | -8 | -3.8
9 | COc1ccc(-c2oc(=O)c3cc(OC)c(OC)cc3c2C#CCCCO)cc1 | 0 | 10 | 5.9
10 | COc1ccccc1C(=O)COC(=O)c1cc(=O)[nH]c2ccccc12 | 5 | -11 | -3.3

No. | Six1-Eya2 blk | TRPML1 ag | PINK1 expr mod
1 | -10 | -0.5 | .
2 | 0 | 1.3 | -1.9%
3 | 2 | 0.0 | -0.1%
4 | -13 | -0.1 | 2.0%
5 | 0 | 3.4 | -1.2%[38.3 µM]
6 | 4 | 2.7 | -1.3%
7 | 17 | 0.1 | -1.5%
8 | -3 | -0.6 | 1.2%
9 | 1 | -0.5 | 6.5%
10 | -6 | 1.1 | 1.9%

Another view of some results above.
item	Structure	CtBP-E1A inh	D2 potentiator	D2 ag	Six1-Eya2 blk	TRPML1 ag	PINK1 expr mod
3	O=C(COc1ccc(Cl)cc1)NCc1nnc(SCC(=O)NC2CCCC2)o1	0	-3	-1.9	2	0.0	-0.1%
4	Nc1c(Cl)cc(-c2csc(NCCc3nc4cc(Cl)c(Cl)cc4n3CCCO)n2)cc1Cl	.	-22	-1.1	-13	-0.1	2.0%
5	COc1ccc(N2C(=O)CC(N3CCC(O)(c4ccc(Cl)cc4)CC3)C2=O)cc1 (stereo not given)	9	-13	0.1	0	3.4	-1.2%[38.3 µM]
6	O=C(Nc1ccc(F)cc1)c1cccnn1	.	-7	-3.0	4	2.7	-1.3%
7	S=c1[nH]c(-c2ccccc2)cn1/N=C/c1ccncc1	-6	17	-6.1	17	0.1	-1.5%
8	O=C(COc1ccccc1F)NCC(c1ccc(F)cc1)N1CCOCC1 (stereo not given)	12	-8	-3.8	-3	-0.6	1.2%
9	COc1ccc(-c2oc(=O)c3cc(OC)c(OC)cc3c2C#CCCCO)cc1	0	10	5.9	1	-0.5	6.5%

Further structures
No. | canonical_smiles | CtBP-E1A inh | D2 potentiator | D2 ag
11 | Cc1ccc(C(C)n2cc(C(=O)NCc3cccnc3)nn2)cc1 (stereo not given) | 3 | -6 | -0.9
12 | CCc1nc2ccc(C(=O)N3CCCC(C(N)=O)C3)cn2c1N(C)Cc1ccc(OC)cc1 (stereo not given) | 1 | 0 | -3.7
13 | O=C(c1cc(-c2cccc(Cl)c2)nc2ccccc12)N1CCN(c2ccccn2)CC1 | -5 | -11 | -5.5
14 | CN(C(=O)c1cccc(NC(=O)Cc2cccc(NC(=O)C3CCN(C(=O)c4ccccc4)CC3)c2)c1)C1CC1 | 1 | . | -1.0
15 | Cc1cc(C)nc(NC(N)=NC2CCCCC2)n1 | -7 | -24 | 1.3
16 | CCOc1ccc(NC(=O)CN2CCN(Cc3c(F)cccc3F)CC2)cc1 | . | -6 | 1.6
17 | CC(=O)Nc1cccc(-c2ccnc3c2CC(C(=O)Nc2cccc(N(C)C)c2)O3)c1 (stereo not given) | ? | -8 | -3.7

No. | Six1-Eya2 blk | TRPML1 ag | PINK1 expr mod
11 | 10 | 1.3 | -0.6%
12 | 1 | -0.8 | 1.9%
13 | -20 | -0.3 | 2.8%
14 | 6 | -0.8 | -0.3%
15 | 0 | 0.7 | 9.6%
16 | 5 | 0.2 | 0.0%
17 | -26 | 1.2 | 8.0%
